TRPML1 agonist: activates the human TRPML1 channel. AID 624414. actives 0.12% (n = 410,000). activation, % (no concentration beside the values). TRPML1-expressing cells, Ca2+ dye fluorescence, FDSS; host cell line not named in the record; reference of the full effect not given here. Q9GZU1; in the data active = activation above about 50%; inconclusive = about 30% to 50%; inactive = below about 30%; note: 0% is about no effect; the text of the record puts the active cut at 80%
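In this qHTS format, compounds were pin-transferred onto Ca8-dye-loaded TRPML1-DL cells induced with Tet overnight, and intracellular Ca2+ fluorescence was recorded kinetically for 110 s after a 10 s baseline. A subsequent 4uM final 54-4 (EC80) addition followed by a second 110 s read served as the antagonist phase.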
PINK1 modulator: changes PINK1 expression | PINK1 immunofluorescence, high-content cytometry, 24 h | actives 0.2% (n = 410,000) | Potency, µM (top dose mostly 76.6 µM), inactives show at the top dose activation (PINK1 increase), hits mostly activators; active = well fitted activation curve with a large enough effect; inconclusive = small, poorly fitted or top-dose-only effect; inactive = flat fitted curve, though single readings scatter; cell line not stated here;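 note: potency is the fitted concentration of half-maximal effect; % of control where 0% means no effect; nearly all actives have a fitted effect of over 65% in size; a mitochondrial uncoupler was the plate control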
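A stable cell line was treated with compounds at 5 concentrations for 24 hours, with CCCP as control. PINK1 levels and mitochondrial localization were measured by immunofluorescence with mitochondrial, cell and nuclear markers after fixation, read by laser-scanning cytometry.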
D2 ag: agonists of human D2 dopamine receptor (beta-arrestin) | P14416 | DiscoveRx PathHunter D2 beta-arrestin, luminescence, 90 min; 100% = 57 uM dopamine signal | activation, % (concentration not given with the values) | actives 0.084% (n = 360,000); in the data active = activation above about 40%; inconclusive = about 15% to 40%; inactive = below about 15%; note: compound concentration not given in the record; the text of the record calls up to 30% inactive
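Agonist mode: compounds alone added to overnight-plated D2 PathHunter cells for 90 min at 37 C, with 57 uM final dopamine (EC100) defining full response. Beta-arrestin recruitment detected by chemiluminescent reagent, read after 1 h at ambient temperature.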
D2 potentiator: potentiates the human D2 dopamine receptor allosterically | P14416 | actives 0.23% (n = 360,000) | AID 624464 | potentiation, % (test concentration not listed) | DiscoveRx D2 beta-arrestin cells, luminescence, 90 min; 100% = 57 uM dopamine signal; active = potentiation of 50% or more; inconclusive = 30% to 50%; inactive = 30% or less;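 note: compound concentration not given in the record; tested on top of an EC20 dose of dopamine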
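PathHunter D2 cells, attached overnight at 37 deg C, received compound in DMSO plus dopamine at EC20 (50 nM final) for 90 min at 37 deg C. Beta-arrestin recruitment was read as luminescence after 1 h with detection reagent at ambient temperature.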
Six1-Eya2 blk: blocks human Six1 binding to Eya2. Q15475+O00167. AlphaScreen GST-Six1/His-Eya2 binding, biochemical; stronger effect = lower value; control for the full effect not named in the record. activity change, % (no concentration beside the values). actives 0.56% (n = 360,000). AID 651725; in the data active = activity change below about -65%; inconclusive = about -30% to -65%; inactive = above about -30%; note: % is set by controls: 0 for no effect and ±100 for the full control effect; compound concentration not given in the record
Target sequence (O00167 whole entry, looked up): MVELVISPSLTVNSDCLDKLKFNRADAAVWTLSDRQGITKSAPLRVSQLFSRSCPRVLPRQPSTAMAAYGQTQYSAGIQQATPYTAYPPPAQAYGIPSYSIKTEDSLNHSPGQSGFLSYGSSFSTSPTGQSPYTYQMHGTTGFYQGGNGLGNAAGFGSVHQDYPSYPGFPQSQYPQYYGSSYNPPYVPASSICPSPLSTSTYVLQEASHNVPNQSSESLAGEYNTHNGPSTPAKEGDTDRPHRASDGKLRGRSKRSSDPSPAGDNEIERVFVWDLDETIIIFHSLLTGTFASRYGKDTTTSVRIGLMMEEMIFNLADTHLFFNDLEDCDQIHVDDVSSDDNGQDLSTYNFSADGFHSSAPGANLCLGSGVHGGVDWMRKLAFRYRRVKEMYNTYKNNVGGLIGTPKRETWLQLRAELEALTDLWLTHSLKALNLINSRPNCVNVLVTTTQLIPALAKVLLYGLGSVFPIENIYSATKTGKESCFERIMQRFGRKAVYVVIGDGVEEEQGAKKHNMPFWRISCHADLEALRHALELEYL
Target sequence (Q15475 whole entry, looked up): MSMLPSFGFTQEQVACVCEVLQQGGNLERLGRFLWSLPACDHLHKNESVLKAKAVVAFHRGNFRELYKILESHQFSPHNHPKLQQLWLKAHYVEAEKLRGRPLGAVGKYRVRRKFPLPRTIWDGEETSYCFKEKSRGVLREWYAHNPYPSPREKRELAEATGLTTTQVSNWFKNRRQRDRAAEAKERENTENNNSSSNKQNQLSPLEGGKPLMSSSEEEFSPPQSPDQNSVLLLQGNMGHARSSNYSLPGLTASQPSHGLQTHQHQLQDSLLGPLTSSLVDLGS
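GST-Six1 + His-Eya2 (5X stock: 250/500 nM); Tris pH 8.0, 300 mM NaCl, 0.05% BSA, 0.02% Tween 20; GSH donor/Ni acceptor beads; 1 h 37 °C dark; AlphaScreen readout.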
TRPML1 blocker: blocks the human TRPML1 channel. actives 0.02% (n = 390,000). activity change, negative = inhibition, % (no concentration beside the values). TRPML1-inducible cells, Ca2+ dye fluorescence, FDSS; stronger effect = lower value; inhibition of EC80 agonist-evoked calcium signal. Q9GZU1; in the data active means activity change below about -50%; inconclusive means about -30% to -50%; inactive means above about -30%;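 note: stimulus is agonist 54-4 at its EC80 concentration; % is set by controls: 0 for no effect and ±100 for the full control effect; compound concentration not given in the record; the text of the record puts the active cut at -80%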
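Tet-induced TRPML1-DL cells loaded with Ca8 no-wash calcium dye were read kinetically on FDSS. Compound addition was followed by EC80 agonist 54-4 (4 uM final); inhibition was read over 110 s.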
* hit, by the source's call; ? = inconclusive; . = not tested or not shown; & = joins results of further samples; [ ] = another dose, or the depositor's remark.

The opening two entries, to show the layout:
SMILES	TRPML1 agonist	PINK1 modulator	D2 ag	D2 potentiator	Six1-Eya2 blk	TRPML1 blocker
OCCN(Cc1ccccc1)Cc1cccc(F)c1	0.0	?	0.6	-11.1	3.5	-6.8
C[C@H](CO)N1C[C@H](C)[C@H](CN(C)C(=O)Oc2cccc3ccccc23)OCc2cnnn2CCCC1=O	-0.5	0.3%	-1.9	-2.1	4.4	-6.1

The listing, from the first entry:
SMILES	TRPML1 agonist	PINK1 modulator	D2 ag	D2 potentiator	Six1-Eya2 blk	TRPML1 blocker
OCCN(Cc1ccccc1)Cc1cccc(F)c1	0.0	?	0.6	-11.1	3.5	-6.8
C[C@H](CO)N1C[C@H](C)[C@H](CN(C)C(=O)Oc2cccc3ccccc23)OCc2cnnn2CCCC1=O	-0.5	0.3%	-1.9	-2.1	4.4	-6.1
CN1[C@@H]2CCC[C@H]1CC(=O)C2	-0.9	1.8%	-4.9	-6.2	-2.9	2.7
Cc1ccc(C(=O)C2CN(C)CC2C(=O)c2ccc(C)cc2)cc1 (stereo not given)	0.6	-0.4%	-3.3	-32.2	-6.8	7.5
Cc1cccc(-n2c(-c3ccc([N+](=O)[O-])cc3)nc3ccccc3c2=O)c1	-0.8	3.9%	2.3	22.4	-6.2	-4.2
OC1/C(=C/c2ccccc2C(F)(F)F)N2CCC1CC2 (stereo not given)	0.4	0.6%	5.6	-4.6	4.3	3.4
Cc1cccc(CC(c2cccc(C)c2)N(C)C)c1 (stereo not given)	1.4	8.1%	3.0	-3.6	-9.6	-7.3
CCOC(=O)C1C(=O)N(C)C2(C)CC1c1cc(OC)ccc1O2 (stereo not given)	-0.2	-1.8%	0.0	-7.3	-0.2	-3.7
C=Cn1ccnc1P(=S)(c1ccc(Cl)cc1)c1nccn1C=C	1.8	-2.1%	-1.6	0.0	4.9	0.6
CN(N=O)c1cc(O)ccc1O	1.3	-0.5%	.	.	.	2.6
O=c1[nH]c2c(c(=O)n1C1CCCCC1)CCC2	0.5	4.4%[38.3 µM]	1.9	-5.1	5.1	-9.6
O=C1NCN(c2ccccc2)C12CCN(C(c1ccccc1OC(F)(F)F)c1nnnn1C1CCCCC1)CC2 (stereo not given)	-0.2	17.4%	-3.4	-7.6	-15.1	.
O=C(O)CP(=O)(O)c1ccc(Cl)cc1	-0.4	-2.0%	-1.8	-29.7	3.2	41.8
Cn1c(O)c(C(c2ccccn2)c2c(O)n(C)c(=S)[nH]c2=O)c(=O)[nH]c1=S	-0.6	-0.5%	-1.0	-3.3	-1.9	-9.1
Cc1ccc2c(c1)=NC(=O)/C(=C/c1c(O)[nH]c(=O)[nH]c1=O)C=2	-0.6	2.5%	-1.7	-5.6	2.2	-16.6
CNC(=O)OCc1n(C)cc[n+]1C	0.1	-1.3%	-6.3	2.0	3.4	15.5
O=C(Nc1ccon1)c1cccn(Cc2cccc(Cl)c2)c1=O	-0.1	2.2%	.	.	.	31.8
Clc1ccc(CNCCc2ccc3c(c2)OCO3)cc1	-0.6	5.8%	2.3	0.8	-1.8	7.4
COc1cc(CNCCc2ccc3c(c2)OCO3)cc(OC)c1OC	-0.8	-0.9%	-5.0	-21.2	-7.7	1.8
CC(=O)n1cc(C=C2C(=O)NC(=O)NC2=O)c2ccccc21	0.0	0.2%	-2.3	-35.3	-11.2	-3.3
CN1CCN(c2ccc([N+](=O)[O-])c(SCCO)c2)CC1	-0.6	0.4%	-2.1	-8.4	-0.4	18.3
O=c1oc2ccccc2c(O)c1C(c1ccc([N+](=O)[O-])cc1)c1c(O)c2ccccc2oc1=O	1.6	-0.5%	-3.9	-5.0	?	-0.1
COc1ccc(CN2CCCCC2c2cccnc2)cc1C (stereo not given)	-0.1	.	-0.2	-4.1	2.1	-21.6
CCCC12CN3CCN(CC(C3)/C1=N\NC(=O)c1ccncc1)C2	0.0	7.6%	-5.6	-4.0	-4.2	-15.7
O=c1[nH]sc2cc(F)ccc12	4.4	0.0%	-7.2	-19.1	13.3	17.6
Additional results.
SMILES	TRPML1 agonist	PINK1 modulator	D2 ag	D2 potentiator	Six1-Eya2 blk	TRPML1 blocker
Cn1cc(C(=O)OCC(=O)NC2(C#N)CCCC2)c2ccccc21	0.0	2.1%	-2.5	-2.1	0.2	-8.5
COc1ccc(C(O)(c2ccccc2)c2ccncc2)cc1 (stereo not given)	2.8	1.5%	3.6	-8.8	-0.9	6.4
Cc1ccsc1C(=O)C1CCCN(Cc2sc(N(C)C)nc2Cl)C1 (stereo not given)	-0.5	0.8%	-2.0	-14.4	-0.6	18.8
CC(=NCC1CCCO1)c1c(O)n(-c2ccccc2C)c(=O)[nH]c1=O (stereo not given)	0.0	-1.1%	-3.5	-28.9	19.4	8.1
COCCO[C@H]1CCC2C3CC=C4C[C@@H](O)CC[C@]4(C)C3CC[C@@]21C (stereo not given in full)	-0.4	9.3%	1.5	-1.2	2.2	-10.9
CCCCCCn1c(=O)c(C(=O)Nc2ncccc2C)c(O)c2ccccc21	1.0	-1.3%	-6.5	-32.0	10.5	8.9
CCCC[N+]12CCC(CC1)C(Cc1ccccc1)C2 (stereo not given)	-0.4	-1.1%	1.0	-2.4	6.7	5.6
CN1C(=O)/C(=C/C=C/c2ccco2)C(=O)NC1=S	.	13.2%	-3.7	-6.3	?	.
CC(C)N(CCC(C(N)=O)(c1ccccc1)c1ccccn1)C(C)C (stereo not given)	-0.9&-0.1	0.7%&-1.0%	3.0&-9.2	1.8&-2.8	-1.1&-0.3	0.9&-6.2
CC(c1ccccc1)[n+]1ccccc1 (stereo not given)	-0.6	-0.7%	0.3	-6.0	6.5	0.6
O=c1c2ccccc2[nH]c(=S)n1-c1ccc2c(c1)OCO2	-0.6	1.0%	-0.9	5.8	0.2	0.3
Cc1ccc(-n2c(O)c(C=NCc3ccco3)c(=O)[nH]c2=S)cc1C	0.5	-1.5%	-1.9	0.8	-11.0	1.4
COc1cc(/C=N/NC(=O)Cn2c([N+](=O)[O-])cnc2C)ccc1OC(=O)N(C)C	0.5	-7.0%[38.3 µM]	1.3	-6.3	1.3	-3.7
CCn1cc(CN2CCCC(C(=O)c3cccc(C(F)(F)F)c3)C2)cn1 (stereo not given)	0.4	1.9%	-5.2	-10.7	10.9	5.3
N#CC(=C(O)c1ccc(S(=O)(=O)N(CCCl)CCCl)cc1)c1nc2ccccc2[nH]1	1.0	0.0%	7.2	6.5	-8.3	-9.1
COc1ccccc1N1CCNCC1	-0.1	-0.5%&-0.3%	-3.3	-6.8	2.8	-21.7
O=c1[nH]c(N2CCN(Cc3ccc4c(c3)OCO4)CC2)nc2c1CCC2	-0.2	1.1%	-1.9	-8.6	6.7	-5.0
CCOC(=O)[C@]12Cc3cc(C)ccc3[C@H]1N(Cc1ccccc1)C(=O)c1ccccc12	3.7&0.3	0.1%	3.8	5.4	-2.9	1.6
COc1ccc(-c2cc(=O)c3c(OC)c(OC)c(OC)cc3o2)cc1	.	1.9%	4.2	-53.6	-15.6	.
CCCC[n+]1cc(/N=C(\[O-])OC)on1	3.2	-1.1%	-0.3	-10.8	2.1	-8.9
COc1ccc(C)cc1NC(=O)N(Cc1ccc2c(c1)OCO2)C1CCN(Cc2ccccc2)CC1	-0.4	0.0%	.	.	.	-10.3
CC1(C)CN2C(c3ccc(Cl)cc3)N2C1 (stereo not given)	0.3	-1.0%	-3.1	-4.8	4.0	-15.4
CS(=O)(=O)NNP(=O)(NNS(C)(=O)=O)NC(=O)c1ccccc1	0.8	-0.1%	-1.3	6.9	-3.4	7.8
CN1C(=O)N(C)C(=O)C2(Sc3ccccc3C2=O)C1=O	1.3	5.9%[38.3 µM]	-2.2	-4.6	-2.4	-9.4
O=C1NC(=O)N(Cc2ccccc2)C(=O)/C1=C\C=C\c1ccco1	5.7	0.3%	-3.4	12.6	-10.5	-3.7
Further results
SMILES	TRPML1 agonist	PINK1 modulator	D2 ag	D2 potentiator	Six1-Eya2 blk	TRPML1 blocker
COCCN1Cc2cc(=O)n3c([nH]c4ccccc43)c2C1=N	-1.1	0.1%	-5.3	-8.8	?	-10.8
COc1cc2c3c(c1OC)-c1cc(O)ccc1CC3NCC2 (stereo not given)	1.4	0.6%	8.7	-12.7	-5.4	-11.6
O=C(COc1ccccc1)N1CCN(CC(O)COc2ccccc2)CC1 (stereo not given)	-0.6	1.2%	-2.6	-27.3	3.6	-11.3
CCCCn1c(O)c(C(CC)=NCCN2CCCCC2)c(=O)[nH]c1=O	-0.1	0.5%	-0.9	-23.8	-1.4	0.9
CCN1C[C@]2(C)CC[C@H](OC)[C@]34C2[C@H](OC(C)=O)[C@@]2(OCO[C@@]25C[C@H](OC)[C@H]2C[C@]3(O)C5[C@H]2OC)[C@@H]14	0.8	-0.3%	2.8	-14.9	4.4	-11.3
CC12CCC3c4ccc(OP(=O)(N5CC5)N5CC5)cc4CCC3C1CCC2=O (stereo not given)	-0.2	0.1%	-3.8	-3.4	4.6	55.5
COc1ccc(OC)c(N2C(=O)NC(=O)C(CCc3ccncc3)(CCc3ccncc3)C2=O)c1	-0.2	.	0.1	-8.3	1.0	-0.5
COP(=O)(OC)/C(C=O)=N/Nc1ccc([N+](=O)[O-])cc1	0.5	-1.3%	-0.7	-10.9	4.0	3.9
CN1CCN(Cc2nc3ccccc3n2C)CC1	0.0	1.3%	-2.7	3.7	-18.1	12.2
O=C1NCN(c2ccccc2)C12CCN(C(CCc1ccccc1)c1nnnn1-c1ccc3c(c1)OCCO3)CC2 (stereo not given)	0.1	1.7%	-4.5	-3.9	-12.2	.
C=CCOC(=O)N1Cc2ccccc2-n2nncc2C1	-0.5	1.1%	-8.4	-0.5	-5.7	-21.9
CCC(C)(C)c1ccc(O)cc1	1.1	1.4%	-2.0	-4.0	0.8	-3.4
Cc1cc(NC(=O)c2cccn(Cc3cccc(Cl)c3)c2=O)no1	1.2	?	.	.	.	-4.1
O=C1NC(=O)C(=Cc2ccccc2Oc2ccc(F)cc2)C(=O)N1	-1.0	1.7%	-4.3	-36.5	3.0	31.4
CC(=O)O[C@H]1CC[C@]2(C)C3CC[C@@]4(C)C(C[C@@H](O)[C@@H]4O)C3[C@@H](OC(C)=O)C[C@H]2C1 (stereo not given in full)	0.1	0.1%	3.1	-0.2	6.4	-12.6
N#Cc1cccc(NC(=O)c2sc3nc4c(cc3c2N)N2CCC4CC2)c1	-0.6	1.7%	.	.	.	18.1
CC12CCC(=O)C=C1CC(O)C1C2CCC2(C)C1CCC2(C)O (stereo not given)	0.4	0.3%	-0.5	-4.5	0.4	-9.0
COC(=O)C1=C(c2cc3ccccc3s2)C[C@@H]2CC[C@H]1N2C(=O)NC1CC1	-1.0	-0.4%	-0.1	-16.5	0.1	1.6

Quoted at random: 2 records from the list
SMILES	TRPML1 agonist	PINK1 modulator	D2 ag	D2 potentiator	Six1-Eya2 blk	TRPML1 blocker
O=C1NCN(c2ccccc2)C12CCN(C(CCc1ccccc1)c1nnnn1-c1ccc3c(c1)OCCO3)CC2 (stereo not given)	0.1	1.7%	-4.5	-3.9	-12.2	.
CN1CCN(Cc2nc3ccccc3n2C)CC1	0.0	1.3%	-2.7	3.7	-18.1	12.2

High-throughput results as filed in PubChem BioAssay.

Some of the compounds tested; the hit share may differ from the screen's.
